RanGTP-Imp inh: inhibitors of RanGTP-importin-beta interaction, primary screen, biochemical, FRET, CFP-Ran, YFP-importin-beta, homogeneous | cell-free CFP-Ran/YFP-importin-beta FRET ratio | Ran GTPase (GTP-bound) - importin-beta complex | 300,000 tested, 1.1% active | inhibition, % (no concentration beside the values);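 active = most replicates above 15%; inconclusive = exactly half above 15%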;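 also: 0% = DMSO wells and 100% = Ran loaded with GDP instead of GTP; wells of about 40 µL received 100 nL stock; the first replicate is given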
rRNA inh HTS: reduced GFP signal of wild-type E. coli, primary screen, bacterial rRNA inhibitor project, GFP/RFP fluorescence, OD600, single point; GFP signal change (wild-type ribosome), % (concentration not given with the values); E. coli WT GFP vs humanized-ribosome RFP mutants, 24 h; active compounds read low; DMSO median 0, no signal -100; 350,000 tested, 1.6% active;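 active = significant combined selectivity score with lowered wild-type GFP, culture density cut under 30%, mutant RFP and density less affected; inactive = any of these conditions unmet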; also: one replicate is shown; some compounds called inactive have numbers as strong as hits
MLL AF4-AF9 inh: inhibitors of AF4 peptide binding to AF9, primary screen, biochemical, AlphaScreen, biotin-AF4 peptide, FLAG-AF9, single point | Protein AF-9 (Homo sapiens), P42568 | inhibition, % at 10 µM | 350,000 tested, 0.47% active | AID 651704, 2012;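 active = every replicate reaching a set inhibition limit, whatever the replicate mean, cut at about 25% in these data; inconclusive = mean inhibition reaches that limit but some replicates miss it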;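 also: 0% = plate neutral control median and 100% = total signal loss; the record names both 10 and 1 µM as test concentration; the first replicate is given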
Target sequence (P42568 whole entry, looked up): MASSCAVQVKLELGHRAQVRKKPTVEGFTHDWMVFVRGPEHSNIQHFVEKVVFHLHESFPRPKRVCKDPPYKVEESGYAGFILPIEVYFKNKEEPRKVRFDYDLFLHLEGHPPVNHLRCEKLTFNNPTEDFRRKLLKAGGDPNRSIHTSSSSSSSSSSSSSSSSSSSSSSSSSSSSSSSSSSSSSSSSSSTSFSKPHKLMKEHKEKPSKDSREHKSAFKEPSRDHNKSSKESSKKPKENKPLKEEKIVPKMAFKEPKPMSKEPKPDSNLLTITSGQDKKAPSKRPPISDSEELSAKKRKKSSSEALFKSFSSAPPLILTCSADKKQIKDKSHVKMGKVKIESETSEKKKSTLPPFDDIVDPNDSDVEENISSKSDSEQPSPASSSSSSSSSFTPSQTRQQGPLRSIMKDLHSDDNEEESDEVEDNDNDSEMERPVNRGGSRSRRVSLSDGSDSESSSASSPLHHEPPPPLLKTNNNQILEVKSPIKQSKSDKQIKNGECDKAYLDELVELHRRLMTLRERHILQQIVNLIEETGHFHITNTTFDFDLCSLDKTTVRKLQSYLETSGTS
FGF22 binding: binders of human FGF22 protein, primary screen, FGF22 synaptogenesis inhibitor project, biophysical, thermal shift, single point | Fibroblast growth factor 22 (Homo sapiens), Q9HCT0 | recombinant FGF22 thermal shift, SYPRO orange fluorescence; percent of sucrose octasulfate shift, DMSO zero | calls only at 9.99 µM | 340,000 tested, 1.5% active | AID 651658, 2012;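 active = melting point raised past a set limit in the mean and every replicate; inconclusive = no clear call; three in four hits are not shown here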
Target sequence (Q9HCT0 whole entry, looked up): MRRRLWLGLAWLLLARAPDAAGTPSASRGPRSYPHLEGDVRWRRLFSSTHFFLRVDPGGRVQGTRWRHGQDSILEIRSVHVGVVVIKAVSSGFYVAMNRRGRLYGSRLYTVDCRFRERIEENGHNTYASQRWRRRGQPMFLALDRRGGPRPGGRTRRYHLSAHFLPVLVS
Beta cell apopt: inhibitors of cytokine-induced beta cell apoptosis, primary screen, luminescence | AID 435005, 2010 | 300,000 tested, 0.8% active | INS-1E cytokine-induced death, ATP luminescence, 48 h; percent of positive-control rescue, neutral wells zero | protection from apoptosis, % (concentration not given with the values);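 active = all replicates at 75% or more, or half of them and the mean; inconclusive = half reach 75% but not the mean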;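 also: 0% = cytokine-treated negative control wells and 100% = positive control rescue; higher means more ATP so stronger rescue from cytokine killing; wells of about 40 µL received 100 nL stock; the first replicate is given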
Calb FLC: C. albicans growth inhibition with fluconazole, primary screen, CaCi-2 strain, Alamar Blue fluorescence; C. albicans CaCi-2 (fluconazole-resistant clinical isolate) + fluconazole, 48 h; growth inhibition, % (concentration not given with the values); 300,000 tested, 0.57% active; AID 1979, 2009;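 active = most replicates above 75%; inconclusive = exactly half above 75%; inactive = most below 75%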;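 also: all wells also contain fluconazole at 8 µg/ml as a sub-toxic cotreatment; 0% = median of DMSO wells and 100% = median of geldanamycin control wells; wells of about 8 µL received 7.5 nL stock; the first replicate is given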
T cruzi repl: inhibitors of intracellular T. cruzi growth, primary screen, luminescence, NIH3T3 host cells; T. cruzi beta-gal in NIH3T3, 90 h; inhibition, % (no concentration beside the values); 300,000 tested, 1.4% active;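 active = mean inhibition across valid replicates above about 55%, limit read from the data; inconclusive = mean below that limit but half or more replicates reach it; inactive = mean below it, under half of replicates reach it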;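 also: signal also drops with host cell toxicity which is not excluded here; 0% = plate median of DMSO wells and 100% = zero luminescence signal; higher percent means less beta-gal luminescence so fewer parasites; stock transfer was 50 nL into about 50 µL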
ALR inh: inhibitors of human ALR sulfhydryl oxidase, primary screen, biochemical, H2O2 detection, HRP-luminol luminescence, single point | FAD-linked sulfhydryl oxidase ALR (Homo sapiens), P55789 | purified ALR, DTT oxidation | inhibition, % (concentration not given with the values) | 290,000 tested, 3.8% active | AID 485317, 2010;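 active = mean and each replicate at 75% or more; inconclusive = only one of the two met; inactive = neither met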;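 also: stock transfer was 7.5 nL into about 7.5 µL; 0% = neutral wells and 100% = wells with inactivated enzyme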
Target sequence (P55789 whole entry, looked up): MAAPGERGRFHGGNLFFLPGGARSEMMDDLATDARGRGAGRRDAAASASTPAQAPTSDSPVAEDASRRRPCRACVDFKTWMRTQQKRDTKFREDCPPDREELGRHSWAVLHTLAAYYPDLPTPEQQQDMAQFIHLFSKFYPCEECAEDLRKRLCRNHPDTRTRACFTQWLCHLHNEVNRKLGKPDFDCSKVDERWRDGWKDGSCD
rRNA inh HTS OD600: recorded beside rRNA inh HTS, whose call it bears; OD600 change, %; measured here: OD600 growth;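 optical density of the mix in the first replicate; 0 = DMSO median and -100 = no signal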
rRNA inh HTS RFP: also measured in rRNA inh HTS; calls as there; RFP signal change, %; measured here: RFP humanized mutant strains;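 first replicate; 0 = DMSO median and -100 = no signal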
* hit, by the source's call; i = inactive; ? = inconclusive; / = not tested or not shown.

SMILES | RanGTP-Imp inh | rRNA inh HTS | rRNA inh HTS OD600 | rRNA inh HTS RFP | MLL AF4-AF9 inh | FGF22 binding | Beta cell apopt | Calb FLC | T cruzi repl | ALR inh
COC(=O)C1=C(C)OC(N)=C(C#N)C1C1CCCCC1 (stereo not drawn) | 0.5 | -21* | -14* | 1.9* | 4.1 | i | -3 | -6 | -3 | -8
CCc1c(C)[nH]n(-c2nc(-c3cccc([N+](=O)[O-])c3)cs2)c1=O | 1.8 | 2 | 3 | 6.6 | -8.7 | i | 3 | 66 | 6 | 24
Cc1cccc(N(CC(=O)N2CCc3ccccc3C2)S(C)(=O)=O)c1C | 4.1 | 6 | -3 | -0.7 | -0.1 | i | -7 | 3 | 9 | -1
Cc1ccc(OCCNC(=O)CCNS(=O)(=O)c2ccc(Br)cc2)cc1 | 0.0 | -4 | -4 | 2.1 | -0.2 | i | / | -2 | -1 | -5
COc1cc2[nH]c(=S)nc(NCc3ccc(C)cc3)c2cc1OC | 2.3 | -4 | -4 | 4.7 | 0.1 | i | 11 | 2 | 6 | 4
O=[N+]([O-])c1ccc(-c2cn(-c3ccccc3)c(=S)[nH]2)cc1 | -1.1 | / | / | / | / | / | 3 | -2 | -10 | -2
COc1ccccc1Nc1ccncc1[N+](=O)[O-] | -1.0 | 1 | 4 | -0.8 | -0.2 | i | -4 | 1 | -6 | -1
CNC(=O)c1ccc(CNC(=O)OCc2ccccc2)cc1 | -2.1 | 5 | 3 | -1.7 | -3.4 | i | 2 | 5 | -14 | -3
O=C(N/N=C/c1ccc2c(c1)OCO2)C(=O)N1CCCC1 | -1.4 | 12 | 16 | -0.2 | 0.3 | i | 2 | 10 | -8 | -7
O=C(N/N=C/C=C/c1ccco1)c1cccnc1 | -0.6 | / | / | / | / | / | -5 | -9 | -10 | -23
C=CCNc1cc(=O)n(Cc2ccccc2)c(=O)[nH]1 | 6.7 | 1 | -3 | -2.0 | -5.3 | i | 4 | -4 | -6 | 1
O=C(Cc1ccccc1)Nc1ccccc1C(=O)Nc1ccccc1 | -1.1 | -29 | -26 | 0.2 | -1.0 | i | -6 | 1 | 1 | 0
Cc1ccccc1OCCCC(=O)Nc1nncs1 | -3.4 | 5 | 4 | -11 | -1.9 | i | 5 | 10 | 1 | -2
CC1(C)CC2CC(C)(CN2C(=O)c2cc(-c3ccccc3)on2)C1 (stereo not drawn) | -4.6 | -31 | -44 | 3.0 | -4.0 | i | / | 2 | 27 | -5
CC(=O)Nc1ccc(S(=O)(=O)N[C@@H](C)C(=O)N2CCN(c3ccccn3)CC2)cc1 | -4.5 | 9 | 0 | -1.1 | -1.5 | i | 3 | 10 | -6 | 99*
COc1ccc(C)cc1N1CC(C(=O)Nc2ccccc2N2CCCCC2)CC1=O (stereo not drawn) | / | -21 | -24 | -1.9 | 1.8 | i | 3 | / | / | /
COc1ccc(C2CC(C(F)(F)F)n3nc(C(=O)Nc4ccc5c(c4)OCO5)cc3N2)cc1 (stereo not drawn) | 4.7 | / | / | / | / | / | 4 | 16 | 47 | -14
O=C(CSc1cccc[n+]1[O-])Nc1ccccc1C(F)(F)F | / | 16 | 4 | -1.3 | -0.8 | i | -7 | / | / | -2
CC(=O)c1ccccc1NC(=O)COC(=O)/C=C/c1ccc(C)o1 | -1.2 | 3 | -1 | -2.1 | 1.8 | i | -3 | -14 | 3 | 96*
CCC1CCCCN1CC(C)(C)NS(=O)(=O)c1ccccc1 (stereo not drawn) | 2.3 | 12 | 8 | 2.6 | 3.5 | / | -4 | -5 | 1 | 2
O=C(NNC(=O)c1ccncc1)c1ccncc1 | / | / | / | / | / | / | -6 | 9 | -11 | 2
Cc1ccc(OCCNC(=O)c2ccco2)cc1C | -0.9 | / | / | / | / | / | 5 | -11 | -9 | -8
Cn1nc(C(=O)NCc2ccc(Cl)cc2)c2c1-c1ccccc1S(=O)(=O)C2 | -2.0 | -15 | -12 | -3.8 | -2.7 | i | -2 | 4 | 14 | -4
COC(=O)Nc1csc2c1NC(=O)CCCC2 | 5.6 | 17 | 19 | 3.5 | 11 | i | -11 | -4 | -17 | -3
Cc1ccc(NC(=O)CC(C(=O)O)c2ccccc2)cc1 (stereo not drawn) | 3.1 | / | / | / | / | / | -7 | -9 | -3 | 8

Four compounds already listed, arranged by their value in rRNA inh HTS RFP, high to low:
SMILES	rRNA inh HTS RFP
CCc1c(C)[nH]n(-c2nc(-c3cccc([N+](=O)[O-])c3)cs2)c1=O	6.6
Cc1ccc(OCCNC(=O)CCNS(=O)(=O)c2ccc(Br)cc2)cc1	2.1
O=C(CSc1cccc[n+]1[O-])Nc1ccccc1C(F)(F)F	-1.3
Cn1nc(C(=O)NCc2ccc(Cl)cc2)c2c1-c1ccccc1S(=O)(=O)C2	-3.8

At a glance, part of the list above.
SMILES | RanGTP-Imp inh | rRNA inh HTS | rRNA inh HTS OD600 | rRNA inh HTS RFP | MLL AF4-AF9 inh | FGF22 binding | Beta cell apopt | Calb FLC | T cruzi repl | ALR inh
COC(=O)Nc1csc2c1NC(=O)CCCC2 | 5.6 | 17 | 19 | 3.5 | 11 | i | -11 | -4 | -17 | -3
Cc1ccc(NC(=O)CC(C(=O)O)c2ccccc2)cc1 (stereo not drawn) | 3.1 | / | / | / | / | / | -7 | -9 | -3 | 8

Next section
SMILES | RanGTP-Imp inh | rRNA inh HTS | rRNA inh HTS OD600 | rRNA inh HTS RFP | MLL AF4-AF9 inh | FGF22 binding | Beta cell apopt | Calb FLC | T cruzi repl | ALR inh
O=C(N=NC(=O)c1ccc2c(O)n(CC3CCCO3)c(O)c2c1)c1cccnc1 (stereo not drawn) | 6.7 | 8 | 5 | -1.5 | 1.4 | i | -14 | 0 | -14 | 10
CCN1CCN(C2=C(NS(=O)(=O)c3ccc(C)cc3)C(=O)c3ccccc3C2=O)CC1 | 3.7 | -18* | -12* | 6.4* | 14 | i | 58 | -2 | 5 | -5
CCCCNC(=O)c1ccc(CS(=O)(=O)c2cccc(C(F)(F)F)c2)o1 | -3.2 | / | / | / | / | / | 2 | 7 | 4 | -9
CCS(=O)(=O)N1Cc2ccccc2CC1C(=O)OCC(=O)Nc1ccc(SC(F)F)cc1 (stereo not drawn) | 1.1 | / | / | / | / | / | -4 | -6 | 6 | 31
O=C(Nc1ccccc1)N1CCC(C(=O)N2CCN(Cc3ccccc3)CC2)CC1 | / | -1 | 3 | -1.8 | -4.0 | i | -3 | / | / | /
COc1cc(OC)c(OC)cc1/C=N/NC(=O)c1cnccn1 | -0.4 | 25 | 22 | 2.3 | -0.1 | i | 0 | 1 | -10 | -6
O=C(NC(=S)Nc1ccc(Cl)cc1)c1cncc(Br)c1 | 7.2 | 2 | 4 | -2.3 | 4.2 | i | 1 | -3 | -36 | -2
COc1ccc(C2=NN(CCC(=O)NCC3CCCO3)C(=O)CC2)cc1 (stereo not drawn) | -1.5 | 6 | 16 | -1.5 | 4.6 | i | -2 | 7 | -6 | 1
CCC(C)NC(=O)C1CC(c2cccc(OC)c2)=NO1 (stereo not drawn) | ? | / | / | / | / | / | 0 | 9 | -5 | 0
COc1cccc(CCc2nnc(CCC(=O)N(C)C3CC(C)(C)NC(C)(C)C3)o2)c1 | 2.6 | 4 | 16 | -1.7 | 1.1 | i | 0 | -13 | 7 | -3
CCOCCCNC(=O)/C(C#N)=C/c1ccc(Cl)c([N+](=O)[O-])c1 | 0.3 | 14 | 13 | 1.9 | -0.8 | i | -7 | -1 | -3 | -1
CC(C)CC(=O)Nc1ccccc1N1CCN(c2ccccc2)CC1 | 3.7 | 4 | 6 | 0.3 | 0.5 | i | -1 | 24 | 1 | 27
COc1ccc(N2CCN(C(=O)C(C)(C)Oc3ccc(Cl)cc3)CC2)cc1 | -0.7 | -29 | -51 | 17 | ? | i | -4 | -1 | 26 | -2
Nc1nc(N)nc(-c2ccccc2)n1 | -1.5 | 2 | -3 | -3.9 | -0.8 | i | -3 | -10 | -6 | -7
CCOc1ccc(C2Nc3ccc4ccccc4c3-c3c2c(=O)oc2ccccc32)cc1 (stereo not drawn) | ? | / | / | / | / | / | 48 | -3 | 66* | -3
O=c1[nH]c(C2CCCN(S(=O)(=O)c3ccc(F)cc3)C2)nc2c1nnn2Cc1ccc(F)cc1 (stereo not drawn) | 2.3 | 4 | 13 | -0.3 | -25 | i | 6 | -4 | 4 | -24
CC1Sc2ccc(S(=O)(=O)N3CCC(C(=O)NCCc4ccccc4)CC3)cc2NC1=O (stereo not drawn) | -0.8 | -1 | 2 | 9.2 | 0.4 | i | 2 | -8 | 4 | -12
CN1CCC(NC(=O)Nc2cccc(C(F)(F)F)c2)CC1 | ? | -35 | -41 | 2.4 | -0.4 | / | -8 | -17 | / | -10
O=C(O)CCc1ccc(S(=O)(=O)Nc2ccccc2C(=O)NCCc2ccccc2)cc1 | -0.5 | 2 | -7 | 3.8 | -1.1 | i | -1 | -4 | -9 | 1
O=C(c1cc(-c2ccc(Br)cc2)nc2ccccc12)N1CCN(c2ccccc2O)CC1 | 7.9 | 1 | -3 | 0.7 | 2.4 | i | -2 | 0 | 29 | 4
O=C(NNS(=O)(=O)c1ccc(Br)cc1)c1cccs1 | -2.1 | -12 | -4 | -3.6 | -3.5 | i | -4 | -2 | 3 | 27
Cc1ccccc1COC(=O)c1cc([N+](=O)[O-])ccc1N1CCOCC1 | -4.0 | -13 | -23 | -1.0 | 6.9 | i | -2 | 12 | 26 | -2
CCOc1ccc(OCC(=O)Nc2cc3c(cc2C(=O)O)OCCCO3)cc1 | 0.0 | -4 | -5 | 4.9 | 1.1 | i | -1 | 0 | -27 | 11
c1ccc(COc2ccc(-c3csnn3)cc2)cc1 | -0.8 | / | / | / | / | / | 5 | 2 | 0 | -5

Looked up above.
Result of CCC(C)NC(=O)C1CC(c2cccc(OC)c2)=NO1 (stereo not drawn) in Calb FLC: 9
Result of O=C(c1cc(-c2ccc(Br)cc2)nc2ccccc12)N1CCN(c2ccccc2O)CC1 in rRNA inh HTS RFP: 0.7

An excerpt, so the mix of outcomes need not match the whole.
